# High-throughput results deposited in PubChem BioAssay by National Center for Advancing Translational Sciences (NCATS).
# VDR inhibitor: vitamin D3 receptor (human) inhibition. P11473. VDR-SRC2-3 peptide fluorescence polarization, 2 h. Potency, µM, for inactives: max response, negative = inhibition, hits mostly inhibitors. 400,000 compounds, 0.93% hits. AID 504847; active = well fitted inhibition curve with a large enough effect; inconclusive = small, poorly fitted or top-dose-only effect, or another doubt; inactive = no such curve, though single readings can be large or run the other way; also: series mostly up to about 120 µM
# Target sequence (P11473 whole entry, looked up): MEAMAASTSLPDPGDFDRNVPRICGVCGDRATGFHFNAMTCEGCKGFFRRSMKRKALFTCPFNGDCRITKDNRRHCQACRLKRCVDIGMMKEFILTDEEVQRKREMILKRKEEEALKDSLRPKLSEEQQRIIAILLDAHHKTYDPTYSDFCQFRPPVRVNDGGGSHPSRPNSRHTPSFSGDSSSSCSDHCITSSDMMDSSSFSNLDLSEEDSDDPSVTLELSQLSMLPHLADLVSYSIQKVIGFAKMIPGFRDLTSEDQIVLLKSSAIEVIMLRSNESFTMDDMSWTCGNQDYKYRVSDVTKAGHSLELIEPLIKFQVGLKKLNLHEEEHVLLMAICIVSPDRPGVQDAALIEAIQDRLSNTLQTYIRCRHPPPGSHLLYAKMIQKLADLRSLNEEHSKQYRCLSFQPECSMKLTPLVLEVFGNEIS
#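 FP read-out; VDR + SRC2-3 coactivator peptide; 23 nl compound by pintool; 2 h RT incubation; reagents held at 4 deg C, protected from light.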
# An asterisk follows results filed as active; ? = inconclusive; [ ] = dose if it differs, or a comment. % is scaled to controls: 0 for no effect and ±100 for the full control effect; potency is read from the fitted curve at half-maximal effect.
smiles	VDR inhibitor
CC(C)(C)C1CCc2oc3ccc(NS(=O)(=O)c4ccc(C(=O)O)cc4)cc3c2C1 (stereo not given)	?
CCC1=C(OC(=O)N(CC)CC)N2C(=O)OC(=NCC3CC3)[C@]2(Cc2ccccc2)[C@H]2C1=CC[C@H]1C(=O)N(CC(=O)OC)C(=O)[C@H]12	-4.7%
CC(OC(=O)C1CC1)C(=O)Nc1cc(C(F)(F)F)ccc1Cl (stereo not given)	-9.1%
COc1ccc2nc(Nc3nc(-c4cc5ccccc5oc4=O)cs3)sc2c1	4.0%
Cc1oc2ccc(OCc3ccccc3F)cc2c1C(=O)O	6.6%
O=C(NNC(=S)NC1CCCCC1)c1cccs1	8.2%
COCCN(C(=S)Nc1ccc(OC)c(Cl)c1)C1CCN(C(C)C)CC1	-5.1%
CCNc1nc(C)nc2c1cnn2C	-6.8%
CCOc1ccc(N2C(=O)CC(NCc3ccc(F)cc3)C2=O)cc1 (stereo not given)	10.1%
Cc1cccc(NC(=S)NC2CC3CCCC(C2)N3CC(C)C)c1C (stereo not given)	-11.3%
O=C(Nc1ccccc1)c1sc2cc(C(F)(F)F)cnc2c1-c1cccs1	?
COc1ccc(CCNC(=O)c2cc3cccc(OC)c3oc2=O)cc1OC	4.2%
CCOc1ccc2oc(C(=O)N(C)CC(=O)Nc3ccc(OCC)c(OCC)c3)c(C)c2c1	9.1%
Cc1ccc2c(c1)c1ccc3c(c1n2C)C(=O)C=CC3=O	50.1µM*
O=C(NCc1cccs1)c1ccc(CSc2nc3cccnc3n2Cc2ccc(F)cc2)cc1	-2.6%
CCOC(=O)/C(C#N)=C/Nc1ccccc1NS(=O)(=O)c1ccc(C)c(C)c1	-9.5%
COc1ccc(-n2c(=O)c3c4c(sc3n(Cc3ccc(F)cc3)c2=O)CCCC4)c(OC)c1	-19.5%
O=C(O)CCCn1c(=O)c2cccn2c2ccc(F)cc21	-3.9%
CSCCC(NC(=O)c1ccccc1)C(=O)N/N=C(\C)c1ccccc1 (stereo not given)	-28.2%
Fc1ccc2c(c1)C(c1ccncc1)=NNC(c1ccc(Br)cc1)=N2	-14.0%
O=C(c1cc2nc(-c3ccccc3)cc(C(F)(F)F)n2n1)N1CCN2CCCC2C1 (stereo not given)	-9.8%
Cc1ccc(-n2cc3c(-c4cccc(Br)c4)nnc(C)c3n2)cc1	4.0%
CCOc1ccc(-c2cc(-c3nc(-c4ccc(OC)c(OC)c4)no3)[nH]n2)cc1	2.7%
CC(=O)Nc1ccc(N/C=C/C(=O)c2ccc(Br)cc2)cc1	27.1%
COc1cc2ccccc2cc1C(=O)NC(=S)Nc1cccc(C(=O)O)c1C	-21.0%

# Entries listed so far containing a furan ring, fused or not, in the order listed:
smiles	VDR inhibitor
CC(C)(C)C1CCc2oc3ccc(NS(=O)(=O)c4ccc(C(=O)O)cc4)cc3c2C1 (stereo not given)	?
Cc1oc2ccc(OCc3ccccc3F)cc2c1C(=O)O	6.6%
CCOc1ccc2oc(C(=O)N(C)CC(=O)Nc3ccc(OCC)c(OCC)c3)c(C)c2c1	9.1%

# Remaining list, next part
smiles	VDR inhibitor
N#Cc1nc(-c2cccs2)oc1NCc1ccc(Cl)cc1	-22.0%
O=C(NCc1cccnc1)c1ccc(COc2cccc3ccccc23)o1	8.6%
Cc1ccc(C)c(NC(=O)CC2NCCNC2=O)c1 (stereo not given)	17.0%
Cc1ccc(-c2ccc3nnc(SCC(=O)NCC4CCCO4)n3n2)cc1 (stereo not given)	-12.0%
COc1ccc(C2=NNC(c3cccnc3)=Nc3ccccc32)cc1	5.5%
O=C(NN1C(=O)c2ccccc2C1=O)C1C2CCCCC21 (stereo not given)	6.8%
COc1ccc(OC)c(NC(=O)c2cc(-c3cc(C)ccc3O)n[nH]2)c1	-5.8%
CCOC(=O)c1c(NC(=O)COC(=O)c2nc(Cl)ccc2Cl)sc(C(=O)N(C)C)c1C	17.7%
COc1ccc(C2C3=C(CCCC3=O)Nc3ccc4ncccc4c32)cc1OC (stereo not given)	5.3%
COc1cccc(NC(=O)C2CCN(S(=O)(=O)c3ccc4c(c3)CC(C)N4C(C)=O)CC2)c1 (stereo not given)	9.3%
CC1(C)C(=O)Nc2ccccc2N1C(=O)COC(=O)COc1ccc(C#N)cc1	8.2%
O=C(C1CCN(S(=O)(=O)c2cc(Cl)ccc2Cl)CC1)N1CCCC1	-14.8%
NC(=O)c1ccc(NC(=O)c2cccc3c2OCCCO3)cc1	3.1%
Cc1c(C(=O)NCc2cccnc2)sc2nc(-c3ccc(F)cc3)cn12	14.2%
C=CCOc1ccc(C2C(C#N)=C(N)N(Nc3ccccc3)C3=C2C(=O)CCC3)cc1OC (stereo not given)	8.2%
CC[C@@H](C)[C@H](NC(=O)C1CCN(C(=O)[C@@H](NS(=O)(=O)c2ccc(C)cc2)C(C)C)CC1)C(=O)O	-10.7%
O=S(=O)(c1ccc2ncsc2c1)N1CCN(c2nc(-c3cccs3)nc3ccccc23)CC1	-24.0%
COc1ccc(NC(=O)c2ccc(NC(=O)C3CC3)cc2)cc1	-12.5%
O=C(CCl)N(c1ccccc1)C1CCS(=O)(=O)C1 (stereo not given)	6.8%
CN(C)Cc1ccccc1-c1ccc2ncnc(NC3CCNCC3)c2c1	6.1%
O=c1[nH]c(CSc2nc3ccccc3o2)nc2c1cnn2-c1ccccc1	4.5%
COc1ccc(NC(=O)CN(C)Cc2c(F)cccc2Cl)cc1S(=O)(=O)N1CCCCC1	-10.7%
CCC1=C(OC(=O)N(CC)CC)N2C(=O)OC(=NCc3ccccc3)[C@]2(C)[C@H]2C1=CC[C@H]1C(=O)N(c3ccccc3)C(=O)[C@H]12	-6.7%
Cc1ccccc1-n1nc(C)c2cc(C(=O)NCc3cccnc3)sc21	2.3%
COc1cc(/C=C(\C#N)C(=O)NC2CCCCC2)ccc1OCc1ccc(C(=O)O)cc1	?
CC(C)n1c(/C=C/c2ccccc2)nc2ccccc21	14.8%
Cc1ccc(NC2=CC(=O)CC(C)(C)C2)cc1F	-13.3%
Cc1ccccc1CC1(CO)CCCN(C(=O)CCCN2CCCCC2=O)C1 (stereo not given)	17.7%
CNc1cc(C)c(C#N)c2nc3ccccc3n12	-6.6%
CC(C)(O)C1CC[C@@](C)([C@@H]2CC[C@]3(C)[C@H]2[C@H](O)CC2[C@@]4(C)CCC(O)C(C)(C)C4C(OC4OC(CO)C(O)C(O)C4O[C@@H]4OCC(O)C(O)C4O)C[C@]23C)O1 (stereo not given in full)	-23.4%
COc1ccc(CNC(=O)c2ccc(NC(=O)N3CCCCc4ccccc43)cc2)cc1	-6.9%
CCC1(C)CC(CCNS(=O)(=O)c2ccc(C)cc2)(c2ccc(C)cc2)CCO1 (stereo not given)	-5.1%
CCOc1ccc(C(=O)NCC(c2ccco2)S(=O)(=O)c2cccs2)cc1 (stereo not given)	-1.9%
CCN(C(=O)c1ccco1)c1nnc(-c2cccnc2)s1	7.9%
CCOc1ccc(NC(=O)CSc2nc3c(oc4ccccc43)c(=O)n2-c2cc(C)cc(C)c2)cc1	-10.7%
Cn1c(=O)oc2cc(S(=O)(=O)NCCC(=O)N3CCN(c4ccccc4F)CC3)ccc21	-21.9%
C=CCc1cc(OC)ccc1OCCOCCN1CCc2ccccc2C1	0.8%
O=C(Cn1c(=O)n(-c2ccccc2)c(=O)c2sccc21)N1CCCC1	-1.4%
COc1ccc([N+](=O)[O-])cc1NC(=O)C(C)OC(=O)/C=C/c1ccco1 (stereo not given)	-14.5%
Cc1ccc(S(=O)(=O)NC(=S)NC2CCCCC2)cc1	-8.0%
CCN(CC)S(=O)(=O)c1ccc(OC)c(NS(=O)(=O)c2ccc(F)cc2)c1	8.9%
CN1C(=O)c2ccc(N3CCCC3)cc2C1=O	-6.4%
CCOC(=O)C(c1ccccc1)C(Nc1ccc(F)cc1)c1ccccn1 (stereo not given)	0.7%
Cc1ccc(N(Cc2ccc(C(=O)NC3CCCCC3)cc2)S(C)(=O)=O)cc1C	9.1%
COc1ccc(Br)c(OC)c1C(=O)NC(=O)Nc1nc(C)cc(C)n1	7.6%
CSCCC(NC(=O)c1ccccc1Br)C(=O)N1CCN(C(C)=O)CC1 (stereo not given)	-1.4%
Cn1c(=O)c(-c2cccc(Cl)c2)nc2cncnc21	1.2%
Cn1c(=O)c2cc(S(=O)(=O)NCCC(=O)NC3CCCCCCC3)ccc2n(C)c1=O	12.9%
O=C(COC(=O)c1cc(S(=O)(=O)N2CCCCC2)ccc1Cl)NC1CCS(=O)(=O)C1 (stereo not given)	-10.8%
COc1cccc([C@@H]2Oc3ccc(OC)cc3C(=O)[C@H]2OC(=O)Nc2ccc(C)c(Br)c2)c1	-1.0%

# Shown as a hit in VDR inhibitor (from the list above):
smiles	VDR inhibitor
Cc1ccc2c(c1)c1ccc3c(c1n2C)C(=O)C=CC3=O	50.1µM*

# Next records follow.
Molecule,VDR inhibitor
CC(=O)c1nn(-c2cccc(Br)c2)cc1C(=O)c1ccc(Cl)cc1,-1.9%
COc1ccc(C2=C/C(=C\c3ccc(OC(C)=O)cc3)C(=O)O2)cc1,-13.7%
O=C1C(Cc2ccccc2)S/C(=N/N=C/c2ccco2)N1c1ccccc1 (stereo not given),-5.0%
COC(=O)CNc1c(-c2ccccc2)nc2ccc(Br)cn12,5.7%
CC1CCc2c(sc(NC(=O)c3c([N+](=O)[O-])cnn3C)c2C(N)=O)C1 (stereo not given),6.1%
O=C(Nc1nc2nccc(-c3ccccc3)n2n1)c1ccccc1,-7.3%
C=CCn1c(=O)c(C(=O)NCc2ccccc2Cl)c(O)c2ccccc21,-12.2%
COc1cc(/C=C2\C(=N)N3N=C(C(C)C)SC3=NC2=O)ccc1OCCOc1ccc(NC(C)=O)cc1,12.7%
Cc1ccc(S(=O)(=O)NCCc2nnc3ccc(SCc4ccccc4C)nn23)cc1,9.1%
CCCn1ncc2c(Nc3ccc(C)c(C)c3)ncnc21,10.0%
O=C(CSc1nnc2scc(-c3ccc(Cl)cc3)n12)Nc1ccccc1F,7.0%
CC1CN(C2=NC(=O)/C(=C3/C(=O)N(Cc4ccc(F)cc4)c4ccccc43)S2)CC(C)O1 (stereo not given),?
CN(CC(=O)NCCc1ccccc1)S(=O)(=O)c1cccc2nsnc12,-10.9%
CN1N=C(C(=O)Nc2ccc3c(c2)CCC3)CCC1=O,-2.2%
COc1cccc(N=C2SC(CC(=O)Nc3ccccc3)C(=O)N2Cc2ccccn2)c1 (stereo not given),0.6%

# Exported with the structure last: 2 of the compounds above.
VDR inhibitor,smiles
12.7%,COc1cc(/C=C2\C(=N)N3N=C(C(C)C)SC3=NC2=O)ccc1OCCOc1ccc(NC(C)=O)cc1
9.1%,Cc1ccc(S(=O)(=O)NCCc2nnc3ccc(SCc4ccccc4C)nn23)cc1

# More entries.
Molecule,VDR inhibitor
CC1CCN(C(=O)c2[nH]cnc2C(=O)Nc2ccc(Cl)cc2)CC1,-11.3%
c1ccc(-c2csc(Nc3cccnc3)n2)nc1,1.4%
CC(C)CNC(=O)C1Nc2ccc(C(F)(F)F)cc2C2C=CCC12 (stereo not given),-15.2%
Cc1ccc(OCCCN2CCCC2)c(C)c1,3.7%
O=C(O)c1cccnc1SCC(=O)N1CCCc2ccccc21,32.9%[activator]
CCOC(=O)c1c(C(=O)OCC)c(C)n(CCc2ccccc2)c1C,-9.0%
COC(=O)N1CCN(S(=O)(=O)c2ccc(F)cc2)CC1,9.3%
CC(C)(C)c1ccc(C(=O)NNC(=O)C2CCCCC2)cc1,4.8%
CCOC(=O)c1[nH]c(C)c(C)c1C,-13.3%
COc1cc(C(=O)NCc2ncccc2C)ccc1OC1CCN(C(C)=O)CC1,?
CSc1ncccc1C(=O)NCc1ccccc1Cl,1.2%
COc1cccc(C(=O)Nc2ccccc2N2CCOCC2)c1,-12.8%
CCCCN(C(=O)CCCc1nc2ccccc2s1)c1c(N)n(CC(C)C)c(=O)[nH]c1=O,6.4%
CCN(CCCNC(=O)Cn1ncc2c(=O)oc3ccccc3c21)c1cccc(C)c1,-27.2%
Cc1ccc2nsnc2c1NC(=O)c1cncc(Br)c1,0.0%
O=C(NCCOC12CC3CC(CC(C3)C1)C2)c1cccc(Br)c1,-9.2%
COC(=O)c1cc(NC(=O)C2CCCN(S(=O)(=O)c3c(C)n[nH]c3C)C2)cc(C(=O)OC)c1 (stereo not given),-4.0%
CCCc1nc2c(nnn2Cc2ccccc2)c(=O)[nH]1,-14.2%
COc1cccc(C(=O)N=c2sc3c(C)ccc(OC)c3n2C)c1,-12.7%
CCc1ccc2c(c1)[C@H]1OCC[C@H]1[C@@H](c1cccs1)N2,-19.7%
COc1ccc2[nH]cc(CCN=C(NC(=O)c3ccccc3C)Nc3nc(C)cc(C)n3)c2c1,-0.9%
COc1ccc(-n2c(=O)c(-c3cccs3)nc3cncnc32)cc1,-1.0%
CC1(C)Cc2c(c(=S)nc(-c3ccccc3)n2Cc2cccnc2)CO1,2.0%
CC1CCCCC1NC(=O)c1ccc2c(c1)OCCO2 (stereo not given),-11.1%
Cc1noc2ncnc(N3CCN(c4ccc(F)cc4)CC3)c12,-14.8%
CN(Cc1ccccc1)C(=O)COC(=O)c1ccc(Br)c(S(=O)(=O)N2CCOCC2)c1,4.2%
COc1cccc(C(=O)Nc2ccc(NC(=O)C(C)(C)C)cn2)c1,-4.9%
CCC(CC)NC(=O)CCc1nc2ccccc2c(=O)[nH]1,-9.1%

# 4 successive records already listed:
Molecule,VDR inhibitor
CC(C)(C)C1CCc2oc3ccc(NS(=O)(=O)c4ccc(C(=O)O)cc4)cc3c2C1 (stereo not given),?
CCC1=C(OC(=O)N(CC)CC)N2C(=O)OC(=NCC3CC3)[C@]2(Cc2ccccc2)[C@H]2C1=CC[C@H]1C(=O)N(CC(=O)OC)C(=O)[C@H]12,-4.7%
CC(OC(=O)C1CC1)C(=O)Nc1cc(C(F)(F)F)ccc1Cl (stereo not given),-9.1%
COc1ccc2nc(Nc3nc(-c4cc5ccccc5oc4=O)cs3)sc2c1,4.0%

# The list is partial; rates above refer to the full screens.
